Source: PubChem (National Center for Advancing Translational Sciences (NCATS))
miR-21 reporter – qHTS Assay for Modulators of miRNAs and/orActivators of miR-21; 340,000 tested, under 10 active; Potency, µM (series often up to 38.3 µM), inactives show top-dose reporter change, positive = more light; HeLa miR-21 FLuc reporter, luciferase, 48 h; AID 2288, 2010; active = well fitted rising curve with a large enough effect; inconclusive = small, poorly fitted or top-dose-only effect; inactive = no such curve, though single readings can be large or run the other way;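 also: % of control where 0% means no effect; miR-21 action dims this reporter so a rising signal means less miR-21 action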
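Compounds were titrated across several concentrations (up to approximately 40 uM) and incubated 48 hours with HeLa miR-21-FLuc reporter cells (miR-21 target sequence downstream of FLuc, endogenous miR-21). Readout was firefly luciferase luminescence after lytic detection reagent.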
Starred values were filed as active, the others as inactive; ? = inconclusive. These rows are one share of the data; rates above refer to the full screens.

The opening 3 records, to show the layout:
SMILES	miR-21 reporter
Cc1ccc(C)c(N2CCN(C(=O)Cn3ncc4ccsc4c3=O)CC2)c1	8%
CCOc1ccc(C(=O)c2cn(Cc3ccccc3OC)c3ccc(F)cc3c2=O)cc1	1%
O=C(c1ccc2c(c1)CCN2S(=O)(=O)c1ccccc1)N1CCN(c2cccc(Cl)c2)CC1	5%

The list itself, from the start:
SMILES	miR-21 reporter
Cc1ccc(C)c(N2CCN(C(=O)Cn3ncc4ccsc4c3=O)CC2)c1	8%
CCOc1ccc(C(=O)c2cn(Cc3ccccc3OC)c3ccc(F)cc3c2=O)cc1	1%
O=C(c1ccc2c(c1)CCN2S(=O)(=O)c1ccccc1)N1CCN(c2cccc(Cl)c2)CC1	5%
CCOC(=O)c1c(C)[nH]c(CCC(=O)NCc2ccc(CC)cc2)c1C	8%
O=C(NCc1ccc(F)cc1)c1ccc2nc(N3CCCCC3)sc2c1	-39%
CCC(Oc1ccccc1)C(=O)Nc1nnc(S(=O)(=O)N(CC)CC)s1 (stereo not drawn)	-42%
COc1ccc(OCC(O)Cn2c(NCCO)nc3c2c(=O)n(C)c(=O)n3C)cc1 (stereo not drawn)	20%
Cc1ccc(NC(=O)CSc2nnc(-c3ccc(Br)cc3)o2)c(C)c1	-31%
Cc1ccc(CCNC(=O)c2ccc(CSCc3ccccc3Cl)o2)cc1	7%
COc1ccccc1N1CCN(C(=O)c2cc3c(=O)n(Cc4cccs4)ccc3nc2C)CC1	8%

Filtered by structure, the compounds so far containing a thiophene ring, fused or not (2)
SMILES	miR-21 reporter
Cc1ccc(C)c(N2CCN(C(=O)Cn3ncc4ccsc4c3=O)CC2)c1	8%
COc1ccccc1N1CCN(C(=O)c2cc3c(=O)n(Cc4cccs4)ccc3nc2C)CC1	8%

Following part
SMILES	miR-21 reporter
CCCC(=O)C1=C(c2ccc(C)c(C)c2)N(C(=O)CCC)n2c(CC)nnc2S1	19%
COc1cc2c(cc1OC)C(COc1ccc3c(C)cc(=O)oc3c1)N(C(=O)c1ccc(Cl)cc1)CC2 (stereo not drawn)	-1%
Cc1cccc(N2CCN(C(=O)C3CCN(S(=O)(=O)c4c(C)noc4/C=C/c4ccccc4F)CC3)CC2)c1C	-1%
COc1ccccc1CNC(=O)c1ccc(N2CCCC2)c(NC(=O)NCc2ccc(C)cc2)c1	17%
COCCCNC(=O)c1cnn(-c2ccccc2Cl)c1C1CCN(C(=O)OC(C)(C)C)CC1	-3%
CCOC(=O)C1=C(CS(=O)(=O)c2c(C)cc(C)cc2C)NC(=O)NC1c1cccc(OC)c1 (stereo not drawn)	-2%
COCCn1c(SCC(=O)Nc2ccc(C(F)(F)F)cc2)nc2c([nH]c3ccccc32)c1=O	-9%
Cc1ccc(C(=O)c2cn(Cc3ccccc3)c3c(F)cc(F)cc3c2=O)cc1	-6%
Cc1ccc(C2=Nc3ccccc3N(CC(=O)NCc3ccc(Cl)cc3)C(=O)C2)cc1C	-36%
CCn1cc(C(=O)Nc2ccc(C(C)C)cc2)c2cc(OC)c(OC)cc2c1=O	?
Cc1ccc(NC(=O)c2c(C)nc3sc(C(=O)Nc4ccc(F)cc4)c(N)c3c2-c2ccccc2Cl)c(C)c1	-4%
CCc1cc2c(cc3c(=O)n(CC(=O)NC4CCCCC4)ncn32)s1	-1%
Cc1cccc(C)c1OCc1cc(=O)n2c(-c3ccccc3)csc2n1	-5%
CCC1CCCCN1C(=O)c1nn(-c2ccc(OC)cc2)c(=O)c2c1c1ccccc1n2C (stereo not drawn)	-28%
COc1ccc(-c2nc(CCNC(=O)c3c(F)cccc3Cl)cs2)cc1	7%
CCOc1ccc(NC(=O)c2cccc(N3CCCS3(=O)=O)c2)cc1	-1%
CCCNC(=O)c1c(C)nn(-c2cccc(C)c2)c1-n1cccc1	21%
CC(Oc1ccc(Br)cc1)C(=O)Nc1ncn[nH]1 (stereo not drawn)	-8%
Cc1ccc(N(C)C(=O)C2CCN(S(=O)(=O)c3cn(C)cn3)CC2)cc1	-7%
Cc1ccc(-c2nnc(NC(=O)c3ccc4c(c3)OCCO4)o2)c(C)c1	-5%
CCc1cccc(NC(=O)Cn2c(C(=O)OC)cc3sc(Cl)cc32)c1	-1%
CCCCN(Cc1ccco1)C(=O)c1cc2c(s1)-c1c(C)cccc1OC2	-5%
O=C(Nc1ccc(F)cc1C(F)(F)F)C1CCN(c2ncccn2)CC1	-1%
CCOC(=O)c1cc(-c2ccc(C)cc2)n(CC(=O)Nc2cccc(C(C)=O)c2)c1C	-3%
COc1ccc(CNC(=O)C(C)n2c(=O)cc(C)c3c(C)nn(-c4ccccc4)c32)cc1 (stereo not drawn)	-2%
COc1ccc(CCNC(=O)Cc2c(C)c3cc4c(C(C)(C)C)coc4c(C)c3oc2=O)cc1OC	0%
O=C(CC1Oc2ccccc2NC1=O)NCc1ccc(F)cc1 (stereo not drawn)	-5%
Cc1ccc(O)c(NC(=O)CCS(=O)(=O)c2nc(-c3ccc4c(c3)OCO4)cc(C(F)(F)F)n2)c1	-4%
Cc1ccc2oc(-c3cc(NC(=O)Cc4ccccc4)ccc3Cl)nc2c1	4%
CCCN1C(=O)C(Cc2nc3ccccc3c(=O)n2CC)c2ccccc21 (stereo not drawn)	-1%

Sorted by value in miR-21 reporter (lowest first): some entries from above
Compound | miR-21 reporter
Cc1ccc(NC(=O)CSc2nnc(-c3ccc(Br)cc3)o2)c(C)c1 | -31%
Cc1ccc(-c2nnc(NC(=O)c3ccc4c(c3)OCCO4)o2)c(C)c1 | -5%
Cc1cccc(N2CCN(C(=O)C3CCN(S(=O)(=O)c4c(C)noc4/C=C/c4ccccc4F)CC3)CC2)c1C | -1%

Following part
SMILES	miR-21 reporter
COc1ccc(C(=O)N(Cc2ccc(N(C)C)cc2)Cc2ccco2)cc1Cl	3%
O=C(CCC(=O)N1CCOc2ccccc21)NCc1cccs1	-15%
COc1cccc(-n2c(=O)c3c(C)c(C)sc3n(CC(=O)Nc3ccccc3OC)c2=O)c1	3%
Cc1cccc(N2CCN(c3ncnc4c3nc3n4CCCCC3)CC2C)c1 (stereo not drawn)	?
O=C(CSc1nc2ccccc2n1Cc1c(F)cccc1Cl)N1CCN(c2ccc(F)cc2)CC1	0%
CCc1ccc2oc(-c3ccc(C)c(NC(=O)/C=C/c4ccco4)c3)nc2c1	-34%
COc1ccc(N2CCN(CCCNC(=O)c3cc(Nc4ccc(OC)cc4OC)nc4ccccc34)CC2)cc1	?
CCOC(=O)C(=O)Nc1c(C(=O)Nc2cccc(F)c2)oc2ccccc12	-3%
COc1ccc(-c2cc(C(F)(F)F)nc(NCc3ccc(F)cc3)n2)cc1	11%
COc1ccc(-c2nc(CS(=O)CC(=O)NCc3ccccc3Cl)c(C)o2)cc1OC (stereo not drawn)	0%
O=C(Nc1c(-c2ccccc2)nc2ccccn12)c1ccc(Br)cc1	-1%
CCOc1ccc(-c2nc3c(C#N)c[nH]n3c2NC2CCCC2)cc1	2%
COc1ccc(N2CCN(C3(c4ccccc4)C(=O)c4ccccc4C3=O)CC2)cc1	0%
Cc1ccc(N(C)C(=O)Cn2cnc3onc(-c4ccc(F)cc4)c3c2=O)cc1C	1%
CC(NC(=O)C(=O)Nc1c2c(nn1-c1ccc(F)cc1)CSC2)c1ccccc1 (stereo not drawn)	-9%
CC(=O)c1ccc(NC(=O)c2nc3ccccc3n(C)c2=O)cc1	-37%
COc1ccc(Cn2ccc3nc(C)c(C(=O)N4CCN(c5ccc(OC)cc5)CC4)cc3c2=O)cc1	?
CCOC(=O)c1cnc2c(C)c(Cl)ccc2c1NCCc1ccc(OC)c(OC)c1	-3%
COc1ccc(CCNC(=O)CCc2c(C)nc3c(c(C)nn3-c3ccc(C)c(C)c3)c2C)c(OC)c1OC	3%
O=C(COc1ccccc1)NCc1ccc2c(c1)CCN2C(=O)c1ccc(F)cc1	29%

Part of the list above, field by field.
SMILES: CC(NC(=O)C(=O)Nc1c2c(nn1-c1ccc(F)cc1)CSC2)c1ccccc1 (stereo not drawn)
  miR-21 reporter = -9%
SMILES: CCOc1ccc(-c2nc3c(C#N)c[nH]n3c2NC2CCCC2)cc1
  miR-21 reporter = 2%
SMILES: CC(=O)c1ccc(NC(=O)c2nc3ccccc3n(C)c2=O)cc1
  miR-21 reporter = -37%

(continued)
SMILES	miR-21 reporter
CCCSCCCNC(=O)c1cc2n(n1)CCCN(Cc1ccc(C)cc1)C2=O	-8%
Cc1ccc2oc3c(c(=O)c2c1)C(c1ccc(O)cc1)N(CCCN(C)C)C3=O (stereo not drawn)	-28%
Cc1ccc(-n2c(=O)c3c4c(sc3n(Cc3ccccc3C)c2=O)CCC4)cc1C	1%
Cc1ccc(Cl)cc1N1CCN(CCCNC(=O)C2COc3ccccc3C2)CC1 (stereo not drawn)	26%
CCOC(=O)c1ccc(CN(Cc2ccc(F)cc2)S(=O)(=O)c2ccc(F)cc2)cc1	-6%
Cc1ccc(CNC(=O)C(CC(C)C)N2Cc3ccccc3C2=O)cc1 (stereo not drawn)	9%
O=C(NC1CC1)c1ccc(Cn2c(SCc3ccc(F)cc3)nc3cccnc32)cc1	-28%
COc1ccc(CCNC(=O)Cn2cc(S(=O)(=O)Cc3ccccc3Cl)c3ccccc32)cc1OC	-2%
CCOC(=O)N1CCc2c(sc(NCc3ccc(N(C)C)cc3)c2C(=O)Nc2ccc(OC)cc2)C1	-11%
CCc1ccc(NC(=O)Cn2cnc3nc4c(cc3c2=O)CCCC4)cc1	-2%
CN1CCN(c2ncc3c(n2)CCN(Cc2ccccc2Cl)C3)CC1	-2%
CC(=O)N1c2c(cc(Br)cc2S(=O)(=O)NCc2ccccc2Cl)CC1C (stereo not drawn)	7%
O=C(CSC1=Nc2ccccc2C2=NC(CCC(=O)NC3CCCCC3)C(=O)N12)Nc1cccc(Cl)c1 (stereo not drawn)	-4%
Cc1ccc(C(c2sc3nc(-c4ccco4)nn3c2O)N2CCN(c3ccc(F)cc3)CC2)cc1 (stereo not drawn)	-1%
CCCN1Cc2cccc(C(=O)Nc3ccc(C(C)=O)cc3)c2C1=O	-10%
COc1ccc(CNC(=O)c2ccc3c(c2)N(Cc2cccc(Cl)c2)C(=O)c2ccccc2S3)c(OC)c1	-7%
Cc1cc(C)cc(C(=O)NCCc2sc(-c3ccc(F)cc3)nc2C)c1	-1%
O=S(=O)(NCC(c1ccco1)S(=O)(=O)c1ccccc1)c1cc(F)ccc1F (stereo not drawn)	0%
Cc1cc(NC(=O)CN2C(=O)CSc3ccc(S(=O)(=O)N(C)C)cc32)ccc1Br	-7%
Cc1ccc2cccc(NC(=O)c3ccc(-c4cc(Cl)ccc4Cl)o3)c2n1	-6%
Cc1ccc(-c2cnc(C3CC3)o2)cc1S(=O)(=O)Nc1cccc(C#N)c1	?
COc1ccc(-n2c(=O)c3c4c(sc3n(Cc3ccc(F)cc3)c2=O)CN(C(C)=O)CC4)c(OC)c1	1%
CCCOc1ccc(C2c3c(-c4ccccc4O)n[nH]c3C(=O)N2Cc2ccncc2)cc1OCC (stereo not drawn)	8%
O=C1Nc2ccc(Br)cc2/C1=C/c1ccc(C(=O)O)cc1	-3%
O=S(=O)(NCC(c1ccco1)S(=O)(=O)c1cccs1)c1ccccc1 (stereo not drawn)	-1%
CCOC(=O)c1[nH]c2ccccc2c1NC(=O)c1cc(OC)cc(OC)c1	12%
Cc1ccc(CN2C(=O)CC(c3ccc(Cl)cc3)c3c(C)nn(-c4nc(C)cc(C)n4)c32)cc1 (stereo not drawn)	0%
CCOC(=O)c1ccc(CN(Cc2ccccc2)S(=O)(=O)c2ccc(Cl)cc2)cc1	4%
COc1ccc(NC(=O)CSc2c3c(nc4ccccc24)CCC3)cc1Cl	-6%
Cc1ccc(Cl)cc1N1CCN(C(=O)c2cn(C)c3ccc(S(=O)(=O)N4CCCCC4)cc3c2=O)CC1	-2%
CC(C)c1ccc(NC(=O)c2ccc3c(O)c(S(=O)(=O)c4ccccc4)c(=O)[nH]c3c2)cc1	4%
CCc1ccc(NC(=O)c2ccc3nc(C(C)C)oc3c2)cc1	-28%
O=C(NCc1ccc(Cl)cc1)c1ccc(NC(=O)N2CC3CCCN3c3ccccc32)cc1 (stereo not drawn)	13%
COc1ccc(Cl)cc1NC(=O)Cn1nc(Cc2ccncc2)c2ccccc2c1=O	14%
COc1cc(Cl)c(NC(=O)C2CCN(S(=O)(=O)c3c(C)noc3/C=C/c3ccccc3F)CC2)c(OC)c1	-2%
Cc1ccc(NC(=O)Cn2c(=O)n(CCCCC(=O)NCc3ccccc3Cl)c(=O)c3ccccc32)cc1C	-2%
CNC(C)C#Cc1ccc2c(=O)c3c(OC)cccc3oc2c1 (stereo not drawn)	-67%
O=C1COc2ccc(-c3cc(-c4ccccc4)c4c(n3)-c3cc(Cl)ccc3OC4)cc2N1	-4%
CCOC(=O)c1ccc(Nc2nc3nonc3nc2Nc2cccc(C)c2C)cc1	?
Cc1ccc(Cl)cc1NC(=O)c1sc(-n2nc(C)c(Cc3ccc4c(c3)OCO4)c2C)nc1C	-16%
Cc1ccc(S(=O)(=O)c2nnn3c2nc(N2CCCC2)c2sccc23)cc1	0%
Cc1cccc(N2CCN(C(=O)Cc3c(C(=O)O)c(C)cn3C)CC2)c1C	-2%
COc1ccc(Nc2nc(N)nc(CSc3nc4ccccc4s3)n2)cc1	9%
CCN(CC)C(=O)Cn1cc(SCC(=O)Nc2cccc(F)c2)c2ccccc21	-1%
Cc1cccc(C(=O)Nc2nnc(S(=O)(=O)N(C)Cc3ccccc3)s2)c1	1%
Cc1onc(-c2ccccc2Cl)c1C(=O)Oc1ccc(Br)cc1	14%
O=c1c2c3c(sc2n(Cc2cc(=O)n4ccccc4n2)c(=O)n1-c1ccc(Cl)cc1)CCC3	-1%
COc1ccccc1OCC(=O)NCC(c1ccc(Cl)cc1)N1CCOCC1 (stereo not drawn)	-3%
Cc1ccc2c(=O)c(C(=O)c3ccc(F)cc3)cn(CC(=O)NCCc3ccccc3)c2n1	-9%
COc1cccc(N2CC(NC(=O)COc3ccccc3F)CC2=O)c1 (stereo not drawn)	-2%
